Rango complex inh: qHTS Assay for Inhibitors of Rango (Ran-regulated importin-beta cargo) - Importin beta complex formation; AID 540263, 2011; Rango CFP/YFP FRET sensor + importin beta, 45 min; 340,000 compounds, 0.031% hits; Potency, µM (titrated, usually from 92.2 µM), without a hit: at the highest dose inhibition of complex formation; active = rising FRET ratio curve, often small or poorly fitted; inconclusive = mostly compound fluorescence or quenching in the first reads; inactive = flat curves in all reads;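 note: potency is the fitted concentration of half-maximal effect; 0% = DMSO wells and 100% = buffer wells lacking importin beta; nearly all actives have a fitted effect of over 15% in size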
Target sequence (Q14974 whole entry, looked up): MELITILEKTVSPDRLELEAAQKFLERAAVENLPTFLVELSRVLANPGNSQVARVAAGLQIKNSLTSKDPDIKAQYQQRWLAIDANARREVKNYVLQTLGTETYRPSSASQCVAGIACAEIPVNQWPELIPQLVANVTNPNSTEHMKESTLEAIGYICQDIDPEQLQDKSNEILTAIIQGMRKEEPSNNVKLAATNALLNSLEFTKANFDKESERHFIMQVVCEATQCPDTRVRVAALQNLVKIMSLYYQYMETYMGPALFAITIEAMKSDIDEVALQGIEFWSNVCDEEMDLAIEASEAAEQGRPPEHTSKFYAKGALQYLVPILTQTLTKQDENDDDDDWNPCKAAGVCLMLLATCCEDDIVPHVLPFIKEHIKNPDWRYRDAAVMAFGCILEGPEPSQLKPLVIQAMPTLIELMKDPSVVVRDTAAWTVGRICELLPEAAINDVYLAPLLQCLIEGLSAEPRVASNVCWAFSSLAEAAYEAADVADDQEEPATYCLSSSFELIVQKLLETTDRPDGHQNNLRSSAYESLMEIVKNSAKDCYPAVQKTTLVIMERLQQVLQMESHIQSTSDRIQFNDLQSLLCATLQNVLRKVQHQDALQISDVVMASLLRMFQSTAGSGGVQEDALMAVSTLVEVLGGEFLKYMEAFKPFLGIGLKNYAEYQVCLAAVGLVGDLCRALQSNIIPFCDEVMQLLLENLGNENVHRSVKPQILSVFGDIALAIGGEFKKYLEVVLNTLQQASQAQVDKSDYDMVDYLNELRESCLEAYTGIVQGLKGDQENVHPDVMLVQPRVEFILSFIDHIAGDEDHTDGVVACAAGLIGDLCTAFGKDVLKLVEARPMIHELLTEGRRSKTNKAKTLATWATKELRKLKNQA
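FRET biosensor (snurportin 1 IBB flanked by EYFP and cerulean), 50 nM, with compound 5 min, then 0.125 microM importin beta in PBS, 1 mM DTT, 0.02% Tween-20, 0.1% BSA. CFP/YFP ratio read after 45 min at room temperature; pre-read flags interference.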
Rango release inh: qHTS Assay for Inhibitors of RanGTP induced Rango (Ran-regulated importin-beta cargo) - Importin beta complex dissociation; Snurportin-1 (Homo sapiens) + GTP-binding nuclear protein Ran (Homo sapiens) + Importin …; Biochemical FRET Rango-importin beta, RanGTP-induced dissociation; Potency, µM (highest dose often 46.1 µM), inactives show top-dose activity change, negative = inhibition; 340,000 compounds, 0.071% hits; active means falling FRET ratio curve, often poorly fitted, with flat reads before Ran was added; inconclusive means other falling curves, or compound fluorescence or quenching; inactive means flat or rising ratio curve;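 note: potency is the fitted concentration of half-maximal effect; % of control where 0% means no effect; nearly all actives have a fitted effect of over 45% in size; -100% = wells without RanGTP and RCC1; the record marks most hits as doubtful in a second field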
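Recombinant Rango FRET biosensor (EYFP–snurportin 1 IBB–cerulean CFP10) at 0.1 uM premixed with 0.25 uM importin beta in PBS, 1 mM DTT, 0.02% Tween-20, 0.1% BSA. Compound added 5 min; RanGTP-RCC1 (0.6 uM Ran, 2 mM GTP, 0.2 uM RCC1) then triggers release, read at 45 min.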
miR-21 FLuc: qHTS Assay for Modulators of miRNAs and/orActivators of miR-21; Potency, µM (doses to about 38.3 µM), for the others: at the highest dose reporter change, positive = more light; HeLa miR-21 FLuc reporter, luciferase, 48 h; 340,000 tested, under 10 active; active = well fitted rising curve with a large enough effect; inconclusive = small, poorly fitted or top-dose-only effect; inactive = no such curve, though single readings can be large or run the other way;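 note: % of control where 0% means no effect; miR-21 action dims this reporter so a rising signal means less miR-21 action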
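Compounds were titrated across several concentrations (up to approximately 40 uM) and incubated 48 hours with HeLa miR-21-FLuc reporter cells (miR-21 target sequence downstream of FLuc, endogenous miR-21). Readout was firefly luciferase luminescence after lytic detection reagent.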
GLA inh pH 4.5: qHTS Assay for Inhibitors of Human alpha-Galactosidase at pH 4.5. Alpha-galactosidase A (Homo sapiens), P06280. purified enzyme, 4-MU-alpha-Gal fluorescence, pH 4.5. activity change, negative = inhibition, % at 105 µM. 230,000 tested, under 10 active; inconclusive = small, poorly fitted or top-dose-only inhibition, or a rising curve; inactive = flat fitted curve, though single readings scatter; no compound was filed as active;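 note: 0% = full activity with enzyme and -100% = basal without enzyme; dose as in the result columns while the protocol names 77 µM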
* = called active by the depositor.

Screening O=C(Cc1c(Cl)cccc1Cl)NCCc1ccc(Cl)cc1 returned Rango complex inh 0.3%, Rango release inh -6.8%, miR-21 FLuc -1.3% and GLA inh pH 4.5 5.4.
For CC1(C)CC(=O)/C(=C(/O)CCCN2C(=O)c3ccccc3C2=O)C(=NC(C)(C)C)C1 the results were Rango complex inh 2.6%, Rango release inh -21.3%, miR-21 FLuc -1.0% and GLA inh pH 4.5 -1.4.
For COc1ccccc1C(=O)Nc1cc2cc(Cl)ccc2oc1=O the results were Rango complex inh 0.5%, Rango release inh 1.6%, miR-21 FLuc -9.6% and GLA inh pH 4.5 2.8.
Screening CN(C)S(=O)(=O)N(CC(=O)N1CCC(Cc2ccccc2)CC1)c1ccccc1 returned Rango complex inh 4.3%, Rango release inh 8.8%, miR-21 FLuc 2.4% and GLA inh pH 4.5 3.9.
CC1CCN(C(=O)C2CCN(S(=O)(=O)c3cccc4cccnc34)CC2)CC1 was read as Rango complex inh -4.0%, Rango release inh 2.8% and miR-21 FLuc -4.6%.
For COC(=O)c1ccc(/C=C2\CCn3c2nc2cc(C(=O)O)ccc2c3=O)cc1 the results were Rango complex inh 2.0%, Rango release inh 0.6% and miR-21 FLuc -1.7%.
`COC(=O)c1ccc(CSc2nc3ccccc3c(=O)n2CC(C)C)o1` gave Rango complex inh -1.6%, Rango release inh 2.5%, miR-21 FLuc -20.1% and GLA inh pH 4.5 -11.7.
`Cc1ccc(S(=O)(=O)N(CC(=O)N(C)C)c2cccc([N+](=O)[O-])c2)cc1` gave Rango complex inh -8.0%, Rango release inh -6.1%, miR-21 FLuc -1.3% and GLA inh pH 4.5 -2.1.
CCOc1ccc(Br)cc1S(=O)(=O)N1CCCC1 was read as Rango complex inh 0.2%, Rango release inh -2.5%, miR-21 FLuc -38.1% and GLA inh pH 4.5 7.7.
Screening CCCN1CN(CCc2ccccc2)CNC1=S returned Rango complex inh -2.0%, Rango release inh -4.2%, miR-21 FLuc -2.0% and GLA inh pH 4.5 2.2.

Next part; the last 2 above are carried over.
CCOc1ccc(Br)cc1S(=O)(=O)N1CCCC1 was read as Rango complex inh 0.2%, Rango release inh -2.5%, miR-21 FLuc -38.1% and GLA inh pH 4.5 7.7.
Screening CCCN1CN(CCc2ccccc2)CNC1=S returned Rango complex inh -2.0%, Rango release inh -4.2%, miR-21 FLuc -2.0% and GLA inh pH 4.5 2.2.
Screening O=C(COc1ccc(Cl)cc1Cl)N/N=C1\CCCc2ccccc21 returned Rango complex inh -0.2%, Rango release inh -8.8%, miR-21 FLuc -5.9% and GLA inh pH 4.5 -5.5.
Screening CCCC(=O)Nc1ccccc1NC(=O)CCC returned Rango complex inh 1.1%, Rango release inh 4.7%, miR-21 FLuc -0.7% and GLA inh pH 4.5 -5.1.
`CC(C)(C)c1ccc(OCC(=O)NNC(=S)NC(=O)c2ccccc2[N+](=O)[O-])c(Br)c1` gave Rango complex inh 5.4%, Rango release inh 20.4%, miR-21 FLuc -11.9% and GLA inh pH 4.5 -9.9.
C#CCNC(=O)C1=C[C@H](c2ccccc2)[C@@H](CCCO)[C@H](OCC)O1 was read as Rango complex inh 1.4%, Rango release inh 1.7%, miR-21 FLuc 2.1% and GLA inh pH 4.5 3.4.
CC(=O)c1ccc(OCCCC(=O)N2CCN(S(=O)(=O)c3ccc(C)cc3C)CC2)cc1 was read as Rango complex inh 1.2% and Rango release inh 16.0%.
Screening Cc1nc2sc(C(c3ccccc3)N3CCN(C(=O)c4ccco4)CC3)c(O)n2n1 (configuration not stated) returned Rango complex inh 2.1%, Rango release inh 17.2%, miR-21 FLuc -4.7% and GLA inh pH 4.5 -4.6.
For O=C(COC(=O)CNC(=O)c1cccc([N+](=O)[O-])c1)Nc1cccc(S(=O)(=O)N2CCCCC2)c1 the results were Rango complex inh 7.3%, Rango release inh -20.6%, miR-21 FLuc 1.9% and GLA inh pH 4.5 4.2.
For CCN(CC)S(=O)(=O)c1ccc(OC)c(NC(=O)CSc2cc(C)ccc2C)c1 the results were Rango complex inh inconclusive, Rango release inh 11.8%, miR-21 FLuc -2.4% and GLA inh pH 4.5 -1.3.
O=C(O)c1ccc(-c2ccc(Cl)cc2Cl)o1 was read as Rango complex inh 4.8%, Rango release inh -2.4%, miR-21 FLuc -28.8% and GLA inh pH 4.5 -4.3.
Cc1ccc(CN2CC(C(=O)Nc3ccc(C)c(S(=O)(=O)N4CCCCC4)c3)CC2=O)cc1 (configuration not stated) was read as Rango complex inh 0.8% and Rango release inh -1.7%.
Screening COc1ccc(/C=C2\SC(=O)N(CCC(=O)NC3CCS(=O)(=O)C3)C2=O)cc1 (configuration not stated) returned Rango complex inh -0.3%, Rango release inh -2.6% and miR-21 FLuc -20.0%.
`O=C1c2ccccc2C2(c3ccc(F)cc3)NCCN12` (configuration not stated) gave Rango complex inh 0.7%, Rango release inh 5.6%, miR-21 FLuc -1.4% and GLA inh pH 4.5 7.2.
Cc1occc1C(=O)NC(C)CCc1ccccc1 (configuration not stated) was read as Rango complex inh -1.8%, Rango release inh 25.5%, miR-21 FLuc 0.3% and GLA inh pH 4.5 1.6.
Screening C=CCNCC(=O)N1N=C(c2ccc3ccccc3c2)CC1c1ccc(OC)cc1 (configuration not stated) returned Rango complex inh 3.7%, Rango release inh 14.0%, miR-21 FLuc 4.0% and GLA inh pH 4.5 -10.5.
`N#Cc1c(N2C(=O)c3ccc(C(=O)O)cc3C2=O)sc2c1CCCC2` gave Rango complex inh -1.1%, Rango release inh -1.1% and miR-21 FLuc -0.2%.
For CC1=C(C)CS(=O)N(S(=O)(=O)c2ccccc2)C1 (configuration not stated) the results were Rango complex inh 4.0%, Rango release inh 6.5%, miR-21 FLuc 8.9% and GLA inh pH 4.5 -7.5.
Screening CC(/C=N/NC(=O)c1ccc(Br)cc1)=C\c1ccccc1 returned Rango complex inh -0.3%, Rango release inh -13.1%, miR-21 FLuc -9.5% and GLA inh pH 4.5 -16.9.
`CN(CC(=O)O)S(=O)(=O)c1ccc2c(c1)NC(=O)CC(=O)N2` gave Rango complex inh 5.0%, Rango release inh 7.7%, miR-21 FLuc 0.9% and GLA inh pH 4.5 -1.5.
CC(C)(C)OC(=O)N1CCCC(C(=O)Nc2ccc(C(=O)N3CCCCC3)cc2)C1 (configuration not stated) was read as Rango complex inh -0.6% and Rango release inh -3.3%.
`CCOc1cc(C2/C(=C(/O)c3ccc(OC(C)C)cc3)C(=O)C(=O)N2CCCOC)ccc1O` (configuration not stated) gave Rango complex inh -0.4%, Rango release inh -10.8%, miR-21 FLuc -49.8% and GLA inh pH 4.5 -10.0.
Screening Cc1cc(C)nc(NC(=O)c2ccc([N+](=O)[O-])o2)n1 returned Rango complex inh -1.3%, Rango release inh 1.8%, miR-21 FLuc 8.9% and GLA inh pH 4.5 14.4.
Screening CCN1/C(=C/c2ccc3ccccc3[n+]2CC)C=Cc2ccccc21 returned Rango complex inh inconclusive, Rango release inh -8.1%, miR-21 FLuc inconclusive and GLA inh pH 4.5 -3.6.
`CN(C(=O)CCn1c(=S)oc2ccccc21)C1CCCCC1` gave Rango complex inh -0.3%, Rango release inh 5.9%, miR-21 FLuc -3.8% and GLA inh pH 4.5 1.1.
Screening Cc1cc(NC(=O)CC(CN(C)S(=O)(=O)c2ccccc2)c2ccccc2)no1 (configuration not stated) returned Rango complex inh -1.5%, Rango release inh 60.6%, miR-21 FLuc -5.1% and GLA inh pH 4.5 -0.6.
COCCNC(=O)C1Nc2ccc(C(F)(F)F)cc2C2C=CCC12 (configuration not stated) was read as Rango complex inh inconclusive and Rango release inh -3.0%.
CS(=O)(=O)N1CCC(C(=O)Nc2cccc(F)c2)CC1 was read as Rango complex inh -0.8%, Rango release inh -12.9% and miR-21 FLuc -2.7%.
For COc1cc(C(=O)OCC(=O)Nc2nnc(-c3ccccc3)o2)cc(OC)c1OC the results were Rango complex inh 5.6% and Rango release inh -12.6%.
N#CC1(NC(=O)CN2C(=O)NC(c3ccccc3)(c3ccccc3)C2=O)CCCC1 was read as Rango complex inh -1.5% and Rango release inh -2.0%.
Screening CCCC(=O)Nc1nnc(S(=O)(=O)N(CC(C)C)c2ccccc2)s1 returned Rango complex inh -2.3%, Rango release inh 2.1% and miR-21 FLuc 1.4%.
Screening CCn1c(CO)nc2c1c(=O)[nH]c(=O)n2Cc1ccccc1 returned Rango complex inh 0.7%, Rango release inh 9.8% and miR-21 FLuc 2.4%.
CC(=O)Nc1ccc(-c2csc(NC(=O)Cc3cccc(F)c3)n2)cc1 was read as Rango complex inh -4.2%, Rango release inh -7.2% and miR-21 FLuc 17.5%.
`COc1ccccc1C(CC(=O)Nc1ccccc1C)c1ccc(OC(C)C)cc1` (configuration not stated) gave Rango complex inh 1.3%, Rango release inh 8.5%, miR-21 FLuc -2.4% and GLA inh pH 4.5 -25.5.
For O=C(OCC#CCSc1nnc(-c2ccncc2)o1)c1cccs1 the results were Rango complex inh 0.5%, Rango release inh -11.1%, miR-21 FLuc -0.7% and GLA inh pH 4.5 -0.3.
For CCOc1ccccc1NC(=O)CSc1nnc2ccc(-c3ccccn3)nn12 the results were Rango complex inh -5.7% and Rango release inh -7.2%.
For NC(=O)C1(Nc2ccc(Cl)cc2)CCCC1 the results were Rango complex inh 0.2% and Rango release inh 10.1%.
For COc1cc(OC)cc(C(=O)OCC(=O)NCCCc2ccccc2)c1 the results were Rango complex inh 1.6%, Rango release inh -15.2% and miR-21 FLuc 0.6%.
For CC(NC(=O)c1ccccc1NC(=O)CN1CCN(c2ccccc2O)CC1)c1ccccc1 (configuration not stated) the results were Rango complex inh -0.6% and Rango release inh 0.4%.
For Cn1cnnc1SCC(=O)Nc1cccc(S(=O)(=O)N2CCOCC2)c1 the results were Rango complex inh -2.9%, Rango release inh -10.6%, miR-21 FLuc -0.8% and GLA inh pH 4.5 -1.1.
COc1ccc(N=C2C(=S)N(c3ccc(OC)cc3)C(=NS(=O)(=O)c3ccccc3)N2c2ccccc2)cc1 was read as Rango complex inh 2.0% and Rango release inh 0.3%.
For CCCOc1ccc(C2C(=O)N(C3CCCCCC3)CC(=O)N2Cc2ccco2)cc1OC (configuration not stated) the results were Rango complex inh -0.2%, Rango release inh -3.6%, miR-21 FLuc -10.4% and GLA inh pH 4.5 0.2.
For COc1ccc(-c2cc(C(=O)Nc3ccc(S(N)(=O)=O)cc3)c3ccccc3n2)cc1OC the results were Rango complex inh -0.4%, Rango release inh -11.6% and miR-21 FLuc -19.6%.
Brc1ccc(COc2ncnc3ccccc23)cc1 was read as Rango complex inh 0.8%, Rango release inh -7.1%, miR-21 FLuc -2.1% and GLA inh pH 4.5 2.7.
For COc1ccc(NC(=O)CN(C)C(=O)c2c(C)nn(Cc3ccc(C)cc3)c2Cl)cc1 the results were Rango complex inh 1.3% and Rango release inh 32.1%.
CN1CCN(Cc2nc3c(c(=O)n(C)c(=O)n3C)n2CCCc2ccccc2)CC1 was read as Rango complex inh 1.7%, Rango release inh -11.7%, miR-21 FLuc -3.5% and GLA inh pH 4.5 0.2.
c1ccc(-n2nnc3ccccc32)nc1 was read as Rango complex inh 0.2%, Rango release inh -4.2%, miR-21 FLuc -24.5% and GLA inh pH 4.5 -2.3.

Gathered by group, the compounds so far containing a tert-butyl group (3)
For CC1(C)CC(=O)/C(=C(/O)CCCN2C(=O)c3ccccc3C2=O)C(=NC(C)(C)C)C1 the results were Rango complex inh 2.6%, Rango release inh -21.3%, miR-21 FLuc -1.0% and GLA inh pH 4.5 -1.4.
`CC(C)(C)c1ccc(OCC(=O)NNC(=S)NC(=O)c2ccccc2[N+](=O)[O-])c(Br)c1` gave Rango complex inh 5.4%, Rango release inh 20.4%, miR-21 FLuc -11.9% and GLA inh pH 4.5 -9.9.
CC(C)(C)OC(=O)N1CCCC(C(=O)Nc2ccc(C(=O)N3CCCCC3)cc2)C1 (configuration not stated) was read as Rango complex inh -0.6% and Rango release inh -3.3%.

Only part of the results is shown, so the mix of outcomes need not match the whole.
